HSD17B inhib – HSD17B dehydrogenase inhibition. Q99714. recombinant HSD17B10, NADH fluorescence kinetic; many of its hits are not listed in these tables. Potency, µM (series often up to 57.1 µM), without a hit: top-dose activity change, negative = inhibition, actives largely listed as inhibitors. hit rate 7.6% among 75,000; active means well fitted inhibition curve with a large enough effect; inconclusive means small, poorly fitted or top-dose-only effect; inactive means no such curve, though single readings can be large or run the other way;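 further: the protocol describes HADH2 (HSD17B10) and not the HSD17B4 of the title; nearly all actives have a fitted effect of over 70% in size; most hits overshoot -100% by far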
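20 nM HADH2, pH 9.0 Tris/Tween; cpd preinc 15 min RT; start w/ 1 mM NAD+ + 90 uM b-hydroxybutyryl-CoA; kinetic fluor ex360/em450 q30s x 4 min; delta last-first.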
An asterisk follows results filed as active; ? = inconclusive; [ ] = remark or other dose. On the % scale 0 is the no-effect control and ±100 the full control effect; potency means the concentration at half of the fitted maximal effect. This is a subset; count on the stated rates, not on these rows.

SMILES	HSD17B inhib
Cc1c(S(=O)(=O)N2CCc3ccccc3C2)c(=O)n(C)c(=O)n1C	3.0%
O=c1[nH]c2cc3c(cc2cc1C(c1nnnn1C1CCCC1)N1CCCc2ccccc21)OCCO3 (stereo not drawn)	?
O=C1Nc2ccccc2[C@]1(O)Cc1ccccn1	9.7%[11.4 µM]
CCC(=O)N1c2ccc(S(=O)(=O)CCC(=O)NCc3ccc4c(c3)OCO4)cc2CC1C (stereo not drawn)	6.9%
COC(=O)CCC(NC(=O)c1cc(-c2ccc3c(c2)OCCO3)oc1C)C(=O)OC (stereo not drawn)	-5.6%
COC(=O)[C@@]1(Cc2ccc(OC)cc2)[C@H]2c3cc(C(=O)N4CCCC4)n(Cc4ccc(Cl)c(C(F)(F)F)c4)c3C[C@H]2CN1C(=O)c1ccccc1	4.9%
CC(C)(C)C(=O)OCC1OC(n2cnc(C(N)=O)n2)C(O)C1O (stereo not drawn)	7.9%
CN(C(=O)c1cc2nc(-c3ccco3)cc(C(F)(F)F)n2n1)C1CCCCC1	?
CN(C)Cc1ccccc1-c1nc(N(C)C)c2ccccc2n1	6.4%
O=C(O)CCc1ccc(-c2cccs2)n1CCC(=O)O	20µM*
Cc1cccc(N2C(=O)SC(N(CC(=O)O)c3cccc(C)c3)C2=O)c1 (stereo not drawn)	-5.6%
NC(=O)CN1CCN(c2ccccc2F)CC1	8.9%
COC(=O)c1ccc(C(NC(=O)OCc2ccccc2)/C(=C/[C@@H](C)C(=O)NCc2cc(F)cc(F)c2)c2cccnc2)cc1 (stereo partly drawn)	16.8%
C=CCNC(=O)CN(c1ccc(F)cc1)S(=O)(=O)c1ccc(OC)cc1	-13.8%
CCOc1ccc2nc(C(C)O)[nH]c2c1 (stereo not drawn)	-9.1%
CCOC(=O)Cc1c(C)nc2c(-c3cccc(Br)c3)c[nH]n2c1=O	31.6µM*
Cc1ccc(C2C(C(=O)c3sc(C)nc3C)=C(O)C(=O)N2CCCN(C)C)o1 (stereo not drawn)	0.5%
CCOc1ccc(N2C(=O)C3CCCN3C2=O)cc1 (stereo not drawn)	5.3%
Cc1ccc2c(c1)cc(CN(Cc1cccs1)C(=O)c1ccco1)c1nnnn12	-5.2%
CCn1c(Cn2nnc(-c3ccccc3)n2)nnc1SCC(=O)Nc1ccc(C(C)=O)cc1	13.3%
CCC(C)NC(=O)C1CCCN(S(=O)(=O)c2ccc(-n3cnnn3)cc2)C1 (stereo not drawn)	-5.8%
CN(C)CCNc1oc(COc2ccc(-c3ccccc3)cc2)nc1C#N	-4.0%
Cc1cc(C)c(NC(=O)CSc2nnc(-c3ccncc3)n2Cc2ccco2)c(C)c1	-15.6%
CC(C)OCCCN1CN(S(=O)(=O)c2ccccc2)c2nc3ccccc3nc21	?
CC1=CCC(COC(=O)Nc2ccccc2)CC1 (stereo not drawn)	-5.2%

Part of the list above, with bars between the fields:
smiles | HSD17B inhib
CCC(C)NC(=O)C1CCCN(S(=O)(=O)c2ccc(-n3cnnn3)cc2)C1 (stereo not drawn) | -5.8%
CN(C)Cc1ccccc1-c1nc(N(C)C)c2ccccc2n1 | 6.4%
COC(=O)[C@@]1(Cc2ccc(OC)cc2)[C@H]2c3cc(C(=O)N4CCCC4)n(Cc4ccc(Cl)c(C(F)(F)F)c4)c3C[C@H]2CN1C(=O)c1ccccc1 | 4.9%
C=CCNC(=O)CN(c1ccc(F)cc1)S(=O)(=O)c1ccc(OC)cc1 | -13.8%
Cc1ccc2c(c1)cc(CN(Cc1cccs1)C(=O)c1ccco1)c1nnnn12 | -5.2%
NC(=O)CN1CCN(c2ccccc2F)CC1 | 8.9%

Additional records follow.
SMILES	HSD17B inhib
CC(Oc1ccc(Cl)cc1)C(=O)Nc1ncccn1 (stereo not drawn)	-13.2%
CC(=O)Nc1ccc(S(=O)(=O)N2CCC(NC(C)=O)(c3cccc(F)c3)CC2)cc1	16.7%
O=C(c1cnccn1)N1CCC2(CCN(Cc3ccccc3)CC2)CC1	4.0%
FC(F)(F)c1nnc2ccc(N3CCOCC3)nn12	-1.6%
COc1cc(NC(=O)CN2CC(c3ccccc3)CC2=O)cc(OC)c1 (stereo not drawn)	2.6%
CCn1c(=O)cc(N2CCCCC2)[nH]c1=O	-0.9%
COc1ccc(-n2c(Cc3cccn3C)nnc2SCC(=O)Nc2ccccc2OC)cc1	-1.3%
Cc1ccc(C)c2[nH]c(=O)c(C(c3nnnn3CCc3ccccc3)N3CCOCC3)cc12 (stereo not drawn)	?
O=C(c1cnn(-c2ccccc2)c1-n1cccc1)N1CCN(C2CCCCC2)CC1	9.0%
CN1CCN(c2nc3c(c(=O)n(C)c(=O)n3C)n2CC(=O)C23CC4CC(CC(C4)C2)C3)CC1	8.0%
Nn1c(COc2ccccc2)nnc1SCc1cc(=O)[nH]c2ccccc12	2.1%
CCOC(=O)c1csc(NC(=O)CSc2nnnn2CC)n1	1.8%
CC1=[N+]([O-])C(C)(C)C(C)N(O)C1=O (stereo not drawn)	?
CCC1(C(=O)OC)NC(c2ccco2)C2C(=O)N(c3ccccc3)C(=O)C21 (stereo not drawn)	-4.7%
COc1cc(-c2csc(C)n2)ccc1O	4.8%
COc1ccc(C)cc1NC(=O)C1CCCN(S(=O)(=O)c2cccc3nonc23)C1 (stereo not drawn)	-0.3%
CCCC(c1nnnn1Cc1cccs1)N1CCN(c2nc3ccccc3s2)CC1 (stereo not drawn)	10.9%
c1nc(N2CCOCC2)c2cc(-c3ccoc3)ccc2n1	1.5%
CCN(CC)S(=O)(=O)c1cc(C(=O)O)ccc1Cl	1.0%
Cc1ccc(Cn2nnnc2CN2CCC(O)(c3ccc(F)cc3)CC2)cc1	-3.0%
CCOC(=O)N1CCN(C(=O)c2oc3ccc(S(=O)(=O)N4CCOCC4)cc3c2C)CC1	7.3%
Cc1cc(NC(=O)CSc2nnc(-c3cccnc3)n2C)no1	2.1%
O=C(CSc1ncnc2c1oc1ccccc12)NCC1CCCO1 (stereo not drawn)	3.5%
CC1CN(c2oc(-c3ccco3)nc2C#N)CC(C)O1 (stereo not drawn)	25.1µM*
CCOc1ccccc1Nc1nnc(SCc2ccc(C(=O)OC)o2)s1	-11.4%

Other records follow:
SMILES	HSD17B inhib
CCOC(=O)C1C(=O)CC(C)(O)C(C(=O)OCC)C1c1cccc(OC(F)(F)C(F)F)c1 (stereo not drawn)	-0.2%
CC(C)NC(=O)c1cc2c(-c3ccc(Cl)cc3)nn(C)c2s1	7.94µM*
O=C(CSc1nc(N2CCCCC2)nc(N2CCCCC2)n1)NC1CCCCC1	6.6%
CCN(CC)S(=O)(=O)c1ccc(C(=O)OCn2nnc3ccccc3c2=O)cc1	-1.6%
COc1ccc2c(=O)cc(-c3ccccc3)oc2c1O	-0.6%
Cn1c(=O)cc(N)n(Cc2ccccc2)c1=O	11.9%
O=C(NCc1ccccn1)C1CCN(S(=O)(=O)N2CCCC2)CC1	-6.0%
Cn1nc(C(=O)OCC(=O)N2CCc3ccccc32)c2ccccc2c1=O	2.4%
Cn1c(SCc2nc(-c3cccs3)no2)nnc1C1CCCCC1	2.3%
N#Cc1c(/N=C/c2cccs2)sc2c1CCCCC2	-7.7%
Cc1nc2nc(SCC(=O)NCc3ccco3)nn2c(C)c1Cc1c(F)cccc1Cl	?
Cc1c(C#N)c(N)c(C(=O)c2ccccc2)n1Cc1ccccc1	-3.7%
COC(=O)[C@@]1(C)C=C[C@@H](Cc2ccccc2)N1C	-5.9%
Cc1ccccc1N(CC(=O)Nc1ccccc1C(=O)O)S(C)(=O)=O	-6.8%
COc1ccccc1C(=O)Nc1cccc(N(C)S(C)(=O)=O)c1	-3.9%
Cc1occc1C(=O)Nc1cccc(Cn2cccn2)c1	6.2%
O=C(CSc1nc(O)cc(=O)n1-c1ccccc1)N1CCCCC1	-4.8%
CC(C)c1nc(SCc2c(F)cccc2Cl)c2c(=O)n(C)c(=O)n(C)c2n1	8.2%
O=C(O)c1cc(=O)c2cccc(O)c2[nH]1	6.7%
COc1cc2cc(CN(Cc3nnnn3C3CCCC3)C3CCCC3)c(=O)[nH]c2cc1OC	31.6µM*
Cc1nc2cnc(N3CCN(C)CC3)nc2n(CCC#N)c1=O	31.6µM*
COc1ccccc1N1CCN(CCCCNC(=O)c2ccc(-c3ccc(C(C)=O)cc3)cc2)CC1	-4.7%
COCCN1Cc2cccc(C(=O)Nc3ccc(S(=O)(=O)N4CCCCCC4)cc3)c2C1=O	-1.5%
COC(=O)c1ccc(C)c(NS(=O)(=O)c2ccc3c(c2)OCCO3)c1	-7.7%
CN(CCC#N)CC(=O)Nc1ccc(NC(=O)CN(C)CCC#N)cc1	-3.7%

3 entries picked at random from the list so far:
SMILES	HSD17B inhib
CC1=[N+]([O-])C(C)(C)C(C)N(O)C1=O (stereo not drawn)	?
O=C(NCc1ccccn1)C1CCN(S(=O)(=O)N2CCCC2)CC1	-6.0%
COCCN1Cc2cccc(C(=O)Nc3ccc(S(=O)(=O)N4CCCCCC4)cc3)c2C1=O	-1.5%

New compounds follow:
SMILES	HSD17B inhib
Cn1c(SCC(=O)NCc2ccco2)nnc1-c1ccc(S(=O)(=O)N2CCOCC2)cc1	-7.4%
CCOC(=O)N1CCC(c2cc(=O)n3[nH]c(C)c(-c4ccc(F)cc4)c3n2)CC1	20µM*
N#Cc1c2c(nc(N)c1-c1ccccc1)CCCCC2	?
Cc1cc(C)c2c(N=CN(C)C)c(C(=O)N3CCN(c4ncccn4)CC3)sc2n1	-3.5%
O=S(=O)(N1CCOCC1)N1CCCN(S(=O)(=O)N2CCOCC2)CC1	3.2%
Cc1ccc(CCNC(=O)C2CCC(=O)N2C2CCCC2)cc1 (stereo not drawn)	-0.4%
Cc1ccc(S(=O)(=O)N(Cc2nccn2C)C(C)C)cc1	10.2%
c1ccc(Oc2ccc(-n3cnnn3)cc2)cc1	4.9%
O=C(COc1ccccc1)Nc1nc(-c2ccc(S(=O)(=O)N3CCOCC3)cc2)cs1	?
CCOc1ccccc1NC(=O)CCCc1nc2ccccc2c(=O)[nH]1	18.3%
O=C(NCC(=O)N(c1ccc2c(c1)OCCO2)C(C(=O)NC1CCCC1)c1ccco1)c1ccco1 (stereo not drawn)	5.5%
COc1ccc2c(c1)OC(O)(C(F)(F)C(F)F)CC2=O (stereo not drawn)	-6.8%
CCOC(=O)CNC(=O)c1cn(C)c(=O)c2cc(OC)c(OC)cc12	-7.6%
COC(=O)c1ccc(NC(=O)CSc2nnc(-c3ccncc3)n2N)cc1	2.9%
Cn1c(=O)c2ncn(CC(=O)NCCOc3ccccc3)c2n(C)c1=O	9.8%
CC1CCCCN1C(=O)c1cc(F)c(F)cc1Cl (stereo not drawn)	11.7%
CCCc1cc(=O)[nH]c(SCC(=O)N(C)Cc2ccccc2)n1	9.4%
CCn1c(COc2ccccc2C)nnc1SCC(=O)Nc1ccc2c(c1)OCCO2	-3.4%
O=C(CC(SCCO)c1ccc2c(c1)OCO2)c1ccco1 (stereo not drawn)	-9.2%
Cc1ccc(C)c(CSc2nnc(CCN)o2)c1	0.7%
CCC(=O)Nc1nnc(Cc2ccccc2)s1	-9.6%
O=C(NCCCN1CCOCC1)c1cc(-c2ccc3c(c2)OCO3)nc2ccccc12	31.6µM*
CCOC(=O)C1CCN(C(=O)CN(c2ccc(OC)cc2)S(=O)(=O)c2c(C)nn(C)c2C)CC1	1.7%
O=C(C1CCC1)N1CCC(c2nc3c(nnn3Cc3c(F)cccc3Cl)c(=O)[nH]2)CC1	-2.5%
CC(C)(C)NC(=O)Cn1cc(C#N)c2cc(Br)ccc21	6.2%

More compounds
SMILES	HSD17B inhib
CC1=C(C(=O)NCc2ccco2)C2(CCC(C)CC2)OC1=O (stereo not drawn)	-7.1%
O=c1c2ccccc2c(/C=N/c2ncn[nH]2)c(O)n1Cc1ccccc1	?
CCOC(=O)CN1C(=O)C(O)(CC(=O)c2cccc(OC)c2)c2ccccc21 (stereo not drawn)	-1.9%
O=P(O)(O)O[C@@H]1O[C@H](CO)[C@@H](O)[C@H](O)[C@@H]1O	7.5%[11.4 µM]
CCSc1nnc(-c2ccccc2NC(C)=O)c(=O)[nH]1	5.4%
CCOC(=O)N1CCN(S(=O)(=O)c2c(C)nn(C)c2C)CC1	4.3%
Cc1cc(N2CCN(C3CCCCC3)CC2)nc2cccc(O)c12	-10.6%
Cn1c(Cn2c(=O)sc3ccccc32)nnc1SCc1ccccn1	7.9%
Cc1ccc(C)c(N2CCN(C(=O)CCCn3c(=S)[nH]c4cc5c(cc4c3=O)OCO5)CC2)c1	-2.6%
Cc1ccc(S(=O)(=O)NCCCN2CCOCC2)c(C)c1	14.6%
CN(C)c1ccc(-c2nc(N3CCNCC3)c3ccccc3n2)cc1	-1.3%
COC(=O)CCC(C)C1CCC2C3CC[C@H]4CC(O)CC[C@@]4(C)C3CC(O)[C@]12C (stereo partly drawn)	-0.1%
COc1cccc(NS(=O)(=O)c2ccc3[nH]cc(C(=O)NCCC(C)C)c(=O)c3c2)c1	-11.3%
COc1ccc(C(=O)N2CCC3(CCCN(C)C3)CC2)cc1	0.8%
CC(C)c1ccc(OCc2nc(-c3ccccn3)no2)c(Br)c1	-12.0%
NC(=O)Nn1c(CCC(=O)O)ccc1-c1ccc(Br)cc1	?
Cc1ccc(-c2csc(NC(=O)c3cccc(N4C(=O)CCC4=O)c3)n2)o1	-16.0%
Cc1ccc(C)c(Cn2c(=O)c3c(nc4n3CCN4Cc3ccco3)n(C)c2=O)c1	-8.5%
O=C(NC1CCCCCC1)C1CCN(S(=O)(=O)c2cccc3cccnc23)CC1	9.8%
COc1ccccc1CN(CC(=O)NCc1ccco1)C(=O)CNS(=O)(=O)c1ccc(C)cc1	-16.0%
O=C(Nc1ccc(-c2noc(-c3cccs3)n2)cc1)c1cccnc1	414.4%[activator]

Quoted from the entries so far (three entries):
SMILES	HSD17B inhib
Cc1cc(C)c(NC(=O)CSc2nnc(-c3ccncc3)n2Cc2ccco2)c(C)c1	-15.6%
CC(C)OCCCN1CN(S(=O)(=O)c2ccccc2)c2nc3ccccc3nc21	?
CC1=CCC(COC(=O)Nc2ccccc2)CC1 (stereo not drawn)	-5.2%

Compound activity from PubChem.
